TRPV1 potentiator = human TRPV1 potentiation; 320,000 tested, 0.02% active; AID 540277; potentiation, % at 8.33 µM; TRPV1-expressing cells, Fluo-8 calcium influx, capsaicin EC20 potentiation; host cell line not named in the record; control for the full effect not named in the record; active means potentiation above 80%; inconclusive means 30% to 80%; inactive means below 30%; further: 0% is about no effect
Target sequence (Q8NER1 whole entry, looked up): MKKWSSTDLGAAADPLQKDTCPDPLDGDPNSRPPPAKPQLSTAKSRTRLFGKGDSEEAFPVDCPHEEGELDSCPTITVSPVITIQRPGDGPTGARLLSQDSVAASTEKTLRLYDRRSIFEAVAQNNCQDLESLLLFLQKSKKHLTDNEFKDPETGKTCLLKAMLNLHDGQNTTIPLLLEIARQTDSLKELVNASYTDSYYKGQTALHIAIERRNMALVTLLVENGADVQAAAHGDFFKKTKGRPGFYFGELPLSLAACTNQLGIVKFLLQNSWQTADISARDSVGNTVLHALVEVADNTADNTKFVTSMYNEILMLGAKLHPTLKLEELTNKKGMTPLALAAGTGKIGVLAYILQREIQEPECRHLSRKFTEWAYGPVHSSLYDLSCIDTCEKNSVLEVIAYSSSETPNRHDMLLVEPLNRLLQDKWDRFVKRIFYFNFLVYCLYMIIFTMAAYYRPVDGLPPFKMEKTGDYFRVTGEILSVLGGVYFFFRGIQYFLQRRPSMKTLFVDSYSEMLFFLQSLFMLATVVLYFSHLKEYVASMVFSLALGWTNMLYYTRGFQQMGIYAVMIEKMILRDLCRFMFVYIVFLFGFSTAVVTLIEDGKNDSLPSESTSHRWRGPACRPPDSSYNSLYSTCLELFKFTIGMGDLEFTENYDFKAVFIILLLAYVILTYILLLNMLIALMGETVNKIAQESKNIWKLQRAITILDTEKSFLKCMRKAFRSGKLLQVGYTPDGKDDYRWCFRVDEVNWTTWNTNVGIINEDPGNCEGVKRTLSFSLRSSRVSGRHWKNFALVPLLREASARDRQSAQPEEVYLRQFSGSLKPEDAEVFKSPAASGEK
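TRPV1-expressing cells were cultured overnight at 35.5C and loaded with Fluo-8 calcium dye for 40 to 90 min at room temperature. After a 10 s baseline, compound was added and calcium influx was read kinetically for 3 min (ex 480/em 520 nm).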
Menin MLL FP FL = menin-MLL binding inhibition, fluorescein peptide; 290,000 tested, under 10 active; Fluorescence polarization, fluorescein-MLL peptide displacement from menin; AID 1766; FP activity change, % at 61.4 µM; inconclusive = falling polarisation curve, or a change in total fluorescence; inactive = total fluorescence flat and polarisation flat or rising; no compound was filed as active; the % refers to the polarisation; negative = inhibition;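 further: % of control where 0% means no effect; inhibitors lower the polarisation; unlabelled MLL peptide was the positive control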
gsp antag = antagonizes gsp, the McCune-Albright syndrome mutation; AID 624288; Potency, µM (highest dose often 76.9 µM), inactives show at the top dose activity change, negative = inhibition, most hits filed as inhibitors; gsp-mutant cells, cAMP HTRF, 30 min; control for the full effect not named in the record; 340,000 tested, 0.4% active; active = falling curve of any shape with a large fitted effect; inconclusive = falling curve, mostly with a smaller effect; inactive = flat or rising curve; cell line not stated here;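 further: intracellular cAMP measured with PDE inhibitor Ro 20-1724 present during compound exposure; potency means the concentration at half of the fitted maximal effect; on the % scale 0 is the no-effect control and ±100 the full control effect; nearly all actives have a fitted effect of over 65% in size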
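G418-selected cells were plated in DMEM/10% FBS for 16-24 h at 37C, then treated with compounds plus the PDE inhibitor […] (300 uM solution added) for 30 min at 37C. Intracellular cAMP was measured by HTRF after 30 min lysis at room temperature.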
gsp ag = agonists of gsp mutant (McCune-Albright syndrome); gsp mutant cells, cAMP HTRF, 30 min; control for the full effect not named in the record; Potency, µM (top dose mostly 76.9 µM), without a hit: top-dose activation (cAMP increase), hits mostly activators; 340,000 tested, 0.13% active; active = well fitted activation curve with a large enough effect; inconclusive = small, poorly fitted or top-dose-only effect, or another doubt; inactive = no such curve, though single readings can be large or run the other way; cell line not stated here;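 further: phosphodiesterase inhibitor Ro 20-1724 added with compounds to block cAMP breakdown; potency means the concentration at half of the fitted maximal effect; nearly all actives have a fitted effect of over 60% in size; about a fifth of the inactives were tested at one dose only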
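Cells in DMEM/10% FBS with G418 were pretreated with compounds in DMSO plus […] (300 uM stock) for 30 min at 37C. cAMP was measured by HTRF (cAMP-d2 plus anti-cAMP antibody-K) after 30 min at room temperature.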
ClpP mod = qHTS Assay for Activators of ClpP. purified B. subtilis ClpP, FRET peptide cleavage, 20 min. Potency, µM (titrated, usually from 57.5 µM), without a hit: top-dose activity change, negative = active. ATP-dependent Clp protease proteolytic subunit (Bacillus subtilis (strain 168)), P80244. 340,000 tested, 1.9% active. AID 651965, 2013; active = well fitted falling curve with a large enough effect; inconclusive = small, poorly fitted or top-dose-only effect; inactive = no such curve, though single readings can be large or run the other way; further: potency means the concentration at half of the fitted maximal effect; the source files actives as falling curves though it sought activators and does not explain the sign; nearly all actives have a fitted effect of over 65% in size; many hits overshoot -100%
Target sequence (P80244 whole entry, looked up): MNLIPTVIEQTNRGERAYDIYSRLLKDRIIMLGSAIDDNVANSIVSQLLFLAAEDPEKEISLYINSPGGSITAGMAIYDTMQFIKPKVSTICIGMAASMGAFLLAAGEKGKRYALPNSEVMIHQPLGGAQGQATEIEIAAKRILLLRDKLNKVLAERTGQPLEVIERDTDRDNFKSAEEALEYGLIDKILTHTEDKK
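Buffer: 100 mM Tris/HCl pH8, 100 mM KCl, 0.05% low protease BSA, 2.5% glycerol, 0.01% Tween-20. ClpP 10 microg/mL final; 20 min RT; delta FRET normalized to ADEP and DMSO controls.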
Sfp PPTase inh = inhibitors of Bacillus subtilis Sfp phosphopantetheinyl transferase. Biochemical Sfp PPTase activity, qHTS. 310,000 tested, 3.5% active. AID 1490. Q9F4F7. Potency, µM, for the others: max response, negative = inhibition, usual class: inhibitors; active means well fitted inhibition curve with a large enough effect; inconclusive means small, poorly fitted or top-dose-only effect, or another doubt; inactive means no such curve, though single readings can be large or run the other way;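 further: the enzyme is Sfp with the accession as filed and its product quenches rhodamine fluorescence; potency means the concentration at half of the fitted maximal effect; 0% = enzyme reaction without inhibitor and -100% = no enzyme wells; top concentration of the series not given in the record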
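Compounds were incubated with enzyme (final 15 nM) for 15 min at room temperature before substrate addition started the reaction. Fluorescence at 525 nm excitation, 598 nm emission was recorded immediately and after 30 minutes.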
CtBP-E1A blk = blocks the CtBP interaction with E1A. activity change, % (concentration not given with the values). AlphaScreen GST-E1A/His-CtBP binding, 1536-well; hits give low values; control for the full effect not named in the record. 340,000 tested, 0.49% active; in the data active means activity change below about -65%; inconclusive means about -30% to -65%; inactive means above about -30%; further: on the % scale 0 is the no-effect control and ±100 the full control effect
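In 5 uL wells, 23 nL compound meets equimolar GST-E1A and His-CtBP (5X stock 125 nM each) for 2 h, 37 °C. Beads (5X, 50 ug/mL) then 1 h, 37 °C, dark.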
* = called active by the depositor; ? = inconclusive; · = no result given; [ ] = remark or other dose.

SMILES	TRPV1 potentiator	Menin MLL FP FL	gsp antag	gsp ag	ClpP mod	Sfp PPTase inh	CtBP-E1A blk
Cc1ccc(N(C(=O)CCl)C(C(=O)NC2CCCCC2)c2cccnc2)cc1C (stereo not drawn)	-5	1.8	6%	3%	-1.2%	-2%	-3
COc1ccc(OC)c(Nc2nc(NCCC(C)C)nc(N)c2[N+](=O)[O-])c1	11	7.8	1%	-8%[15.4 µM]	0.6%	8%	-11
COc1ccccc1NC(=O)c1csc2c1CCCC2	2	-0.2	-16%	13%	-0.5%	-11%	21
COc1ccccc1NS(=O)(=O)c1ccc2oc(SCC(C)=O)nc2c1	-7	-3.6	-1%	-2%	·	12%	-4
O=C(COC(=O)CNC(=O)c1ccc(Cl)c([N+](=O)[O-])c1)NNC(=O)c1ccccc1F	-4	·	-12%	-4%	0.3%	·	·
CCOc1ccccc1NC(=O)C1CCCN1S(=O)(=O)c1ccccc1C(F)(F)F (stereo not drawn)	-10	·	-8%	-3%	0.3%	·	9
COc1ccc(NC(=O)c2cc(-c3ccco3)nc3ccccc23)cn1	9	·	5%	-6%	-13%	·	-14
Nc1nc(SCc2nc3scc(-c4cccs4)c3c(=O)[nH]2)n[nH]1	?	3.2	-4%	17%	-1.9%	3%	-6
CCN1CCCC1CNC(=O)C(=O)NCCc1ccc(OC)c(OC)c1 (stereo not drawn)	10	-0.1	4%	-6%	·	9%	6
CNC(=O)c1ccc(NC(=O)Nc2ccccc2)cc1	6	0.1	-5%	-14%	-0.5%	23%	·
Nc1nc2nc(-c3cccs3)cc(C(F)(F)F)n2n1	1	-1.1	8%	-4%[15.4 µM]	·	5%	-4
CCN(CC)c1ccc2c(O)cc(=O)oc2c1	24	-2.1	?	-11%[15.4 µM]	·	-10%	9
CCN(CC)S(=O)(=O)c1ccc2c(c1)N(CC(=O)NCCCN1CC(C)CC(C)C1)C(=O)CO2 (stereo not drawn)	-10	-5.7	9%	-19%	0.5%	16%	2
COc1ccc(OCC(=O)Nc2ccc(N3CCN(C(=O)c4ccco4)CC3)cc2)cc1	-4	-3.5	-25%	16%[15.4 µM]	-2.8%	6%	5
CCOC(=O)c1c(C)[nH]c(C(=O)CSc2nnnn2-c2ccccc2)c1C	-2	-1.2	9%	5%	-3.9%	-10%	-5
O=C(CCS(=O)(=O)c1ccc(Br)cc1)Nc1ccc(Br)cc1F	-10	1.0	-6%	8%	1.1%	16%	8
N#C/C(=C\C=C\c1ccccc1[N+](=O)[O-])C(=O)NC1CCCCC1	-8	8.7	-19%	1%[15.4 µM]	·	-5%	-2
CCC(c1ccccc1)c1nc(-c2cccnc2)no1 (stereo not drawn)	-15	-0.8	11%	20%[15.4 µM]	-0.3%	2%	9
C[C@H]1CN([C@@H](C)CO)C(=O)c2cc(Br)cnc2O[C@H]1CN(C)C(=O)c1ccc2c(c1)OCO2	·	·	·	-44%	-1.1%	·	4
Cc1ccc(S(=O)(=O)N(C)C)cc1NC(=O)C(C)OC(=O)C1CCC1 (stereo not drawn)	·	·	12%	3%	-1.0%	·	12
Cc1cccc(C(=O)NC(C(=O)Nc2ccccc2N2CCOCC2)C(C)C)c1 (stereo not drawn)	-23	6.0	-2%	-3%	·	8%	-7
COc1cnc(SC(C)C)[nH]c1=O	6	6.8	4%	0%[15.4 µM]	·	-17%	7
CC(C)C(=O)NNC(=O)c1ccccn1	-20	-6.0	3%	-12%	1.8%	-19%	8
Cc1nc2ccccn2c1C(=O)Nc1ccc(Cl)cc1	-16	2.6	-8%	2%[15.4 µM]	·	17%	3

Molecules shown so far that have two or more sulfur atoms, in the order listed:
SMILES	TRPV1 potentiator	Menin MLL FP FL	gsp antag	gsp ag	ClpP mod	Sfp PPTase inh	CtBP-E1A blk
COc1ccccc1NS(=O)(=O)c1ccc2oc(SCC(C)=O)nc2c1	-7	-3.6	-1%	-2%	·	12%	-4
Nc1nc(SCc2nc3scc(-c4cccs4)c3c(=O)[nH]2)n[nH]1	?	3.2	-4%	17%	-1.9%	3%	-6

The results go on:
SMILES	TRPV1 potentiator	Menin MLL FP FL	gsp antag	gsp ag	ClpP mod	Sfp PPTase inh	CtBP-E1A blk
O=C(Nc1ccccc1)c1ccn[nH]1	17	-0.3	-9%	5%	-0.1%	8%	-4
CC(C(=O)N1CCCc2ccccc21)N1CCN(S(=O)(=O)c2ccccc2F)CC1 (stereo not drawn)	-12	4.9	-10%	-53%	-4.2%	12%	-9
O=C(Nc1ccc2c(c1)OCO2)c1cccc(Cl)c1	-18	5.4	-18%	1%	0.4%	-3%	-2
Cc1c(C(=O)c2ccc([N+](=O)[O-])cc2)c(=O)n(C)c(=O)n1C	2	-0.3	4%	-3%	·	7%	8
c1coc(CN(Cc2cccs2)Cc2nnnn2C2CCCCC2)c1	-15	-0.6	-15%	-50%[inhibitor]	-0.2%	-2%	3
Cn1cnnc1SCC(=O)Nc1ccc(N2CCOCC2)cc1	-4	-4.0	2%	-3%[15.4 µM]	·	-2%	2
Cc1cc(-c2nnc(CCC(=O)N(C)C(C)c3cccs3)o2)no1 (stereo not drawn)	-2	5.3	-14%	6%	-0.5%	3%	2
Clc1ccc(-n2nnnc2-c2ccccc2)cc1Cl	7	-1.3	-9%	-59%[inhibitor]	-2.3%	-12%	0
COc1ccc(/C=C/c2c(-c3ccc(OC)cc3)oc3cccnc23)cc1	-14	-2.2	-1%	36%	4.5%	-18%	35
O=C(c1ccc([N+](=O)[O-])cc1)N1CCN(C2=NS(=O)(=O)c3ccccc32)CC1	2	1.3	-6%	2%[15.4 µM]	-2.5%	11%	18
O=C(CCCCCNC(=O)c1ccccc1)N/N=C/c1ccccc1	-1	11	-6%	4%[15.4 µM]	·	16%	-9
CCCCn1c(-c2ccc(C(C)(C)C)cc2)nc2cc3[nH]c(=O)c(C(C)C)nc3cc21	-7	6.3	6%	-2%	4.1%	-10%	3
Cc1ccc(-n2ncc3c(SCC(=O)Nc4cc(C)on4)ncnc32)c(C)c1	25	-5.0	1%	29%[15.4 µM]	-2.3%	13%	3
Cc1ccc(NS(=O)(=O)c2cccc(C(=O)n3ncc(C#N)c3N)c2)c(C)c1	-1	3.6	13%	5%	0.1%	24%	-4
COc1ccc(C2CC(c3ccccc3)=NN2C(=O)COC(=O)c2cnc(Cl)c(Cl)c2)cc1 (stereo not drawn)	-17	1.9	-1%	-1%	-10%	-8%	1
O=C(N/N=C/c1ccc(Br)s1)c1ccco1	-16	-3.4	-2%	9%	·	-1%	1
O=C(Cn1cc(COc2c(F)c(F)c(Br)c(F)c2F)nn1)c1ccc(O)cc1	·	·	-11%	·	0.6%	·	0
COc1ccc(-c2nc(CN3CCC(C(=O)N4CCc5ccccc54)CC3)c(C)o2)cc1OC	6	1.9	-1%	-66%[inhibitor]	-27%	3%	-2
CN1C(=O)C(O)(CC(=O)c2ccncc2)c2ccccc21 (stereo not drawn)	6	-3.1	10%	6%	-3.9%	-21%	0
Cc1cc(NC(=O)CSc2nc(=O)n(CCCN(C)C)c3c2CCCC3)no1	3	·	9%	-35%[inhibitor]	-6.5%	·	8
CCSc1nc(-c2ccccc2)cc(=O)[nH]1	6	·	-1%	·	-2.7%	·	5
COC(=O)C1=C(N)OC2=C(C(=O)CC(C)(C)C2)C1c1cccnc1 (stereo not drawn)	-6	1.2	5%	-11%	-2.0%	6%	2
Cc1ccc(NC(=O)c2c(NC(=O)CCC(=O)O)sc3c2CCCCC3)cc1	1	12	-19%	-4%[15.4 µM]	·	11µM*	-3
CCNC(=S)Nc1cccc(S(=O)(=O)Nc2ccccc2OC)c1	1	4.3	-1%	2%[15.4 µM]	·	-14%	-15
O=C(CNC(=O)c1sc2ccccc2c1Cl)NCc1ccc(F)cc1	?	·	-3%	-38%[15.4 µM]	·	·	-7
CC1(C)c2ccccc2C(=O)c2ccccc21	·	·	3%	9%[15.4 µM]	1.9%	·	13
COc1cc(/C=C/C(=O)OCC(=O)NC(=O)NC(C)C)cc(OC)c1OC	7	0.8	11%	14%	·	-9%	0
CCn1c(SCC(=O)Nc2nc(C)cs2)nnc1-c1ccoc1C	13	-1.9	-5%	30%	-0.4%	15%	5
COc1ccc(C(=O)NCc2nnc(SCC(=O)NC3CCCC3)o2)cc1	2	1.5	-3%	?	1.0%	11%	3
CCN(C(=O)CSc1cccc[n+]1[O-])C1CCCCC1	·	·	10%	-2%	0.0%	·	·
CCOc1ccc(-c2cnc3ccccc3n2)cc1	-11	1.0	-5%	7%	-13%	13%	·
CC1CN(C(=O)c2cc3ccccc3cc2O)CC(C)O1 (stereo not drawn)	8	·	6%	2%	-1.8%	·	5
O=C(NC1CCSc2ccccc21)c1cccc(Cl)c1 (stereo not drawn)	4	·	-4%	-28%	-0.3%	?	-1
NC(=O)C1CCN(C(=O)OCc2ccccc2)CC1	5	4.6	2%	17%	0.6%	23%	3
COc1cc(OC)c(S(=O)(=O)NC(C)C)cc1C(=O)O	-5	-1.0	17%	-1%	-0.6%	14%	13
Cn1c(SCc2ccccn2)nnc1-c1ccccc1	2	0.5	7%	-39%[inhibitor]	·	0%	-15
O=C(O)CC(NS(=O)(=O)Cc1ccccc1)c1cccc([N+](=O)[O-])c1 (stereo not drawn)	2	2.0	10%	15%	·	20%	5
COc1ccc(NC(=S)NCCc2c[nH]c3ccccc23)c(OC)c1	-6	5.1	-1%	-65%[inhibitor]	0.3%	26%	·
N#CC1=C(S)N(c2ccccc2)C(c2cccs2)NC1=O (stereo not drawn)	3	-4.6	-4%	-15%	0.1%	10µM*	7
O=C(CNC(=O)c1nn(Cc2ccccc2)c(=O)c2ccccc12)Nc1ccc(F)c(F)c1F	·	·	-11%	31%	·	·	-2
O=C(CCCN1C(=O)c2ccccc2C1=O)NCCc1ccc(OC(F)F)cc1	9	-2.5	3%	-1%[15.4 µM]	·	6%	-2
O=C(CSc1nc(CCC2CCCC2)nc2ccccc12)NCc1ccc2c(c1)OCO2	8	1.3	-1%	?	·	6%	6
COc1ccc(NC(=O)Cc2nn(C)c(=O)c3ccccc23)c2ncccc12	-19	3.5	·	·	·	-4%	·
NC(=O)CSc1nnc(CNc2ccc(F)cc2)n1CC1CCCO1 (stereo not drawn)	5	0.2	5%	-1%	-4.4%	-3%	0
NC(=O)c1nnsc1-c1ccc(-c2snnc2C(N)=O)cc1	-12	-5.3	5%	?	-0.4%	12%	·
